# eIF4H FP inh: human eIF4H binding inhibitors, primary screen, translation initiation inhibitor project, biochemical, uHTS, fluorescence polarization | Eukaryotic translation initiation factor 4H (Homo sapiens), Q15056 | eIF4H fluorescence polarization binding assay | inhibition, % at 35 µM | 0.94% of 290,000 active | AID 2012, 2009;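 active = 50% or more with normal probe brightness, or confirmed in later tests; inconclusive = above 50% with abnormal brightness, or retests that disagree; inactive = below 50% or failed in later tests; about a fifth of its hits are not listed in these tables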;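 note: calls also rest on retests at 20 µM and on dose response follow-up; 0% = protein and probe with vehicle and 100% = probe without protein; strong numbers were not always called active; many hits fall short of the cut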
# UUG fidelity: modulators of yeast start codon fidelity, primary screen, whole organism, S. cerevisiae, single point, plate reader; S. cerevisiae UUG-firefly luciferase reporter, luminescence/redox ratio; activity score, % at 18.7 µM; 0.13% of 350,000 active; AID 602363, 2012;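 active = replicate mean at a twofold rise or more, about +100% in these data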;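 note: firefly luciferase made from a UUG start codon reports start codon fidelity; reporter light over untreated wells divided by growth signal over untreated wells; some hits fall short of that in this replicate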
# CSC inhib: cancer stem cell viability inhibitors, primary screen, luminescence; cancer stem cell-like cells viability; inhibition, % at 7.5 µM; 1.1% of 300,000 active; AID 2717, 2010;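 active = mean at 75% or more and at least half the replicates too; inconclusive = mean and replicates disagree; tested in HMLE shEcad cells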;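 note: 0% = median of negative and 100% = median of positive control wells; the first replicate is given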
# MT1-MMP act inh: blockers of MT1-MMP proenzyme processing, primary screen, HT1080 RFP-PRO-GFP cells, GFP/RFP fluorescence; Matrix metalloproteinase-14 (Homo sapiens), P50281; GFP/RFP ratio fluorescence, overnight; percent of plate control window, DMSO zero; GFP/RFP ratio change, % at 20 µM; 0.061% of 360,000 active;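 active = GFP/RFP ratio change of at least 30% with cell ATP level not reduced by more than half and red fluorescence within 50% of control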; note: strong numbers were not always called active
#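 Test system: HT1080 cells expressing an RFP-PRO-GFP fluorescent reporter construct / Compound dosing: single-point 20 µM compound, 1% DMSO / Schedule: cells overnight before dosing, compound overnight, 37 °C, 5% CO2 / Evaluation: GFP/RFP fluorescence ratio / Control set: DMSO and RFP-L50D-GFP cell wells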
# Rce1 inh: yeast Rce1p protease inhibitors, primary screen, biochemical, fluorescence, cell-free homogeneous. CAAX prenyl protease 2 (Saccharomyces cerevisiae (strain ATCC 204508 / S288c)), Q03530. yeast membranes, quenched prenylated peptide cleavage fluorescence. calls only. 0.27% of 290,000 active;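 active = fall in fluorescence gain of 50% or more versus controls, with final raw signal at or below 3038400; inconclusive = same 50% fall but final raw signal above 3038400; inactive = fall in fluorescence gain under 50%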;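 note: plate controls were neutral control wells for no effect and wells lacking membranes for full effect; tested at 10 µM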
# HIV Env fusion: inhibitors of HIV-1 Env-driven cell-cell fusion, primary screen, HeLa-JRFL effector, CEM21 target cells, luciferase; inhibition, % at 12.3 µM; 1.1% of 360,000 active;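 active = mean replicate inhibition score of at least 50 and every replicate individually at or above 50; inconclusive = only one of the two criteria met; inactive = mean below 50 and not all replicates reaching 50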;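 note: 0% = plate neutral controls and 100% = maraviroc near 300 nM; one replicate is shown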
# PABP FP inh: PABP poly(A) RNA binding inhibitors, primary screen, biochemical, fluorescence polarization, uHTS; Polyadenylate-binding protein 1 (Homo sapiens), P11940; inhibition, % at 35 µM; 1% of 290,000 active;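 active = 50% or more with normal probe brightness, or confirmed in later tests; inconclusive = above 50% with abnormal brightness, or retests that disagree; inactive = below 50% or failed in later tests; about a fifth of its hits are not listed in these tables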;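 note: calls also rest on retests at 20 µM and on dose response follow-up; controls were probe without protein and protein plus probe with vehicle; some compounds called inactive have numbers as strong as hits; many hits fall short of the cut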
# Target sequence (P11940 whole entry, looked up): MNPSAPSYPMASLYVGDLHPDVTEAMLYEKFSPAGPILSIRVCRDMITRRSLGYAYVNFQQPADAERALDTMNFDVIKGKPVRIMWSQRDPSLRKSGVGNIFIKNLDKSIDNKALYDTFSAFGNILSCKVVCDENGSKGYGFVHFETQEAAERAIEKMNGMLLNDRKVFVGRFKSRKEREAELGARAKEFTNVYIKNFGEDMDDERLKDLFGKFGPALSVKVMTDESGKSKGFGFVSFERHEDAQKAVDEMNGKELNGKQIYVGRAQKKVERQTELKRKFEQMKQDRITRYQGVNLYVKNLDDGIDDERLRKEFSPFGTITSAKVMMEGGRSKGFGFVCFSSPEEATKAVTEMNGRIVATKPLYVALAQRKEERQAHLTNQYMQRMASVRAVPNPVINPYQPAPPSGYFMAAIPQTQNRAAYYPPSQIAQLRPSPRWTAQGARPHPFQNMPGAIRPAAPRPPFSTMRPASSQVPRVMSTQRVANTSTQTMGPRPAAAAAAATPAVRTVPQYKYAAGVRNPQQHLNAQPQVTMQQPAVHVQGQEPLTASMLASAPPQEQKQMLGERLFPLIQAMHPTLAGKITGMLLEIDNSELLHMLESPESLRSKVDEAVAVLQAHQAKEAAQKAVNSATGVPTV
# eIF4H FP inh retest: recorded beside eIF4H FP inh, whose call it bears; inhibition, %; compound at 20 µM; confirmation average;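 mean of two retest wells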
# PABP FP inh retest: second read-out of PABP FP inh, no call of its own (marks repeat the call); inhibition, %; compound at 20 µM; confirmation repeats;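 mean of two retest wells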
# MT1-MMP act inh RFP: second read-out of MT1-MMP act inh, no call of its own (marks repeat the call); RFP signal change, %; measured here: RFP expression control read;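 0 = vehicle wells; hits needed this value within 50% of zero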
# The depositor's hits bear a star; i = inactive; ? = inconclusive; nt = not tested or not shown.
SMILES,eIF4H FP inh,UUG fidelity,CSC inhib,MT1-MMP act inh,MT1-MMP act inh RFP,Rce1 inh,HIV Env fusion,PABP FP inh,others
O=C(COc1cccc(-n2cnnn2)c1)NC1CCCCC1,3,2,-2,-3,-2,i,8,-9,
Cc1oc(-c2ccc(Cl)cc2)nc1CN1CCC(C(=O)NCc2cccnc2)CC1,-4,-15,-11,4,-1,i,nt,4,
CNC(=O)c1c(NC(=O)CCS(=O)(=O)c2ccccc2)sc2c1CCN(C(=O)OC)C2,nt,nt,-1,-2,0,i,5,nt,
COc1ccc(C(=O)CN2CCN(CCN3C(=O)c4cccc5cccc(c45)C3=O)CC2)cc1,nt,-7,1,-3,0,i,9,nt,
COC(=O)c1cc(OC)c(OC)cc1NC(=O)C1CCC(=O)N1S(=O)(=O)c1ccc(C)cc1 (stereo not given),0,nt,-7,2,-1,i,?,0,
CCN(CC)C(=O)Cn1c(=O)n(-c2ccc(CC(=O)NCc3ccccc3)cc2)c(=O)c2sccc21,-1,-14,-18,-4,0,i,0,-8,
CCOc1cccc(Nc2ccc([N+](=O)[O-])cn2)c1,1,-34,7,1,1,i,-14,2,
CC[C@H](C)[C@H]1CNC(=O)C(=O)N1CC1CCN(CC2CCC(C)CC2)CC1 (stereo not given in full),nt,-4,nt,2,6,nt,2,nt,
C=CCN([C@@H](CC(C)C)C(=O)OC)S(=O)(=O)N(CC=C)[C@@H](CC(C)C)C(=O)OC,nt,7,22,-4,-2,nt,81*,nt,
CC(C(=O)N(C)c1ccccc1)N1CCN(C(=O)c2ccccc2)CC1 (stereo not given),10,-4,-10,-4,3,i,-7,-5,
CC(C)NC(=O)C(=O)NCCN1CCN(S(=O)(=O)c2ccc(Cl)cc2)CC1,-6,-9,-9,-3,1,i,nt,-1,
Cc1nn(C)c(C(=O)N2CCc3ccccc32)c1Cl,-3,-17,3,-3,2,i,-128,13,
CCOC(=O)c1sc(NC(=O)c2ccc(S(=O)(=O)N(C)C)cc2)cc1C,0,-10,24,6,-12,i,-6,-3,
COc1ccccc1Oc1c(C)oc2c(CN3CCOCC3)c(O)ccc2c1=O,-10,nt,-10,-2,2,?,-4,2,
Cc1cccc(C)c1-n1c(C)cc(/C=C2\NC(=O)NC2=O)c1C,-5,8,-7,-7,-3,i,-56,0,
COCC(=O)N/N=C/c1ccc(Sc2nc3ccccc3s2)o1,-6,1,22,-20,3,i,-88,2,
COC(=O)c1cc(Br)c(=O)n(Cc2ccncc2)c1,1,-8,-11,-4,0,i,nt,5,
CCCc1cc(=O)oc2cc(OCC(=O)N3CCc4ccccc43)ccc12,-2,-11,-22,6,4,i,nt,-3,
COc1cc(NC(=O)C2=COCCO2)c(OC)cc1Cl,nt,-19,4,2,-6,i,-13,nt,
C=CCn1c(SCc2csc(C)n2)nc2sc3c(c2c1=O)CCCCC3,-5,-4,-4,-2,-3,i,36,-12,
COCOCCn1cc(CN2CCS(=O)(=O)N(Cc3ccc(-c4ccc(OC)nc4)cc3)C(C)C2=O)nn1 (stereo not given),nt,0,nt,2,1,nt,26,nt,
Cc1nc(N/N=C/c2cccc([N+](=O)[O-])c2)cc(N2CCCCC2)n1,nt,-13,nt,1,-7,nt,11,nt,
Cc1noc(C)c1S(=O)(=O)N(C)C[C@H]1Oc2ccc(NC(=O)Cn3cnnn3)cc2C(=O)N([C@H](C)CO)C[C@@H]1C,nt,11,-7,1,5,nt,7,nt,
CC(=O)Nc1ccc(NC(=O)c2ccccc2N(C)S(C)(=O)=O)cc1,1,nt,-6,5,9,i,-50,-2,
COc1ccc(NC(=O)c2ccc(OC(F)F)cc2)cc1Cl,-11,nt,5,3,2,i,-42,6,
FC(F)(F)c1nnc2c(Sc3ccccc3)nc3ccccc3n12,17,nt,10,-41,-22,i,-94,0,
CC(=O)OCCNc1cc(SCc2ccco2)c2nonc2c1[N+](=O)[O-],96,-3,-1,6,-2,i,nt,42,eIF4H FP inh retest=-8;PABP FP inh retest=6
CN(C(=O)CC(NC(=O)c1ccccc1)(c1ccccc1)c1ccccc1)c1ccccc1,0,13,4,-8,-8,i,69*,-5,
O=C(NCC(F)(F)F)c1ccc(S(=O)(=O)N2CCN(C(=O)C3CCCO3)CC2)cc1 (stereo not given),nt,0,nt,8,2,nt,1,nt,
CSC(=S)N/N=C(\C)c1ccc(Br)cc1,13,-14,-1,9,6,i,5,4,
COc1ccccc1CCNC(=O)C(=O)NCC1OCCN1S(=O)(=O)c1ccc(F)cc1 (stereo not given),-8,18,0,4,7,i,1,4,
O=C(NCc1ccccc1)c1cccc(NC(=O)c2ccco2)c1,0,-15,57,4,3,i,nt,6,
O=C(c1ccccc1)N(CCN1CCOCC1)C1(C(=O)Nc2ccccc2)CCCCC1,5,nt,-10,-6,1,i,nt,3,
Cc1nc(-c2ccccc2OC(F)(F)F)[nH]c(=O)c1Cl,-1,nt,7,3,4,i,-11,3,
CCN(CC)S(=O)(=O)c1cccc(C(=O)Nc2cc(C)nn2-c2ccccc2)c1,3,-3,-5,4,-6,i,9,6,
Cc1cccc(C)c1OCC(=O)Nc1ccc(N2CCOCC2)cc1,3,-5,-5,3,1,i,-6,1,
O=C(CNC(=O)c1ccc([N+](=O)[O-])cc1)N/N=C/c1c[nH]c2ccccc12,-3,-7,-3,2,-3,i,nt,-4,
CN1CCN(C(=O)Cn2c(C(F)(F)F)nc3ccccc32)CC1,-4,-6,-17,3,4,i,-3,-10,
Cc1ccc(NC(=O)C(C)N2C(=O)C3CC=C(Cl)CC3C2=O)cc1 (stereo not given),-5,-5,-16,1,6,i,nt,-7,
O=C(O)C1CC=CCC1C(=O)Nc1ccc(Oc2ccc(Cl)cc2)cc1 (stereo not given),0,-8,48,4,-3,i,10,-7,
Cc1nc2ccccc2cc1C(=O)N/N=C/c1ccc([N+](=O)[O-])cc1,-8,-15,nt,6,-1,i,31,0,
CCCCNC(=O)c1cc2c(C)cc(C)cc2[nH]1,7,nt,-5,-2,-4,i,6,-12,
Cc1ccc2[nH]c(=O)c(C3=NN(C(=O)CCC(=O)O)C(c4cccs4)C3)c(-c3ccccc3)c2c1 (stereo not given),-14,4,nt,0,2,i,10,0,
O=C(Nc1ccccc1)N1C2CCC1CC(O)(c1cccnc1)C2 (stereo not given),-4,-29,nt,3,1,i,nt,8,
COC(=O)c1nnn(-c2ccccc2)c1N,6,-21,5,3,1,i,-25,2,
CCOc1ccccc1-c1ccc(C(=O)NCc2ccccc2)o1,10,-5,-3,-4,5,i,-8,1,
O=C1OC(c2ccc(F)cc2)=C/C1=C\c1ccc(O)cc1,5,-13,-16,-2,-1,i,-3,0,
Cc1cc(C(=O)N/N=C/c2ccc(O)c([N+](=O)[O-])c2)n[nH]1,-6,nt,5,3,1,nt,-4,4,
Nc1ccc(-c2ccc(N)c(C(=O)O)c2)cc1C(=O)O,34,-8,0,10,7,i,8,12,
COc1ccc(C2N(C(=O)c3ccccc3)CCN2C(=O)c2ccc(C)cc2)cc1 (stereo not given),3,1,-13,-1,-2,i,nt,-3,

# The results go on:
SMILES,eIF4H FP inh,UUG fidelity,CSC inhib,MT1-MMP act inh,MT1-MMP act inh RFP,Rce1 inh,HIV Env fusion,PABP FP inh,others
CCC(=O)n1nc(-c2ccccc2)nc1NCc1ccccc1,-8,4,-2,2,0,i,-13,-5,
C[C@@]12C(=O)N(c3ccc(Br)cc3)C(=O)N1[C@@H]1c3ccccc3OC[C@@H]1[C@H]2c1ccccc1,nt,-8,2,-5,-8,nt,-21,nt,
COc1ccc(C(=O)NC(C)c2ccc(-n3ccnc3)cc2)cc1[N+](=O)[O-] (stereo not given),-9,-19,-6,-3,-11,i,1,-3,
COc1ccc(C(CCN2CCCCC2)c2c(O)cc(OC)cc2OC)cc1 (stereo not given),-15,-9,5,2,5,i,-5,-7,
CCOCC(=O)Nc1cc(C(=O)Nc2cccc(C)c2C)ccc1Cl,4,-22,10,0,2,i,nt,-5,
COc1ccc(CN2CCS(=O)(=O)CC2)cc1OC,-5,-11,-5,1,-2,i,-4,4,
Cc1ccc(NC(=O)COc2ccccc2C(=O)NCc2ccccc2)cc1,nt,-13,13,1,-2,nt,-8,nt,
Cc1c(NC(=O)C(C)Sc2ccccc2)c(=O)n(-c2ccccc2)n1C (stereo not given),-11,-9,-2,2,2,i,nt,-1,
O=C(NCCCO)C(=O)NCCc1ccc(Cl)cc1,-6,-7,-5,1,6,i,6,6,
O=C(NCc1ccco1)c1ccccc1-c1ccc(C(F)(F)F)cc1,-1,6,-13,-6,-2,i,7,-4,
COC1CCN(C(=O)c2ccc3oc(Cc4ccc(Cl)cc4)nc3c2)CC1,-19,9,10,2,-1,i,4,-13,
CC(NC(=O)COc1ccc(S(=O)(=O)N2CCOCC2)cc1)c1ccccc1 (stereo not given),nt,-8,nt,-2,-1,nt,-33,nt,
O=C(OCC(=O)N1CCOCC1)c1ccccc1OCc1ccc(Cl)cc1,nt,-12,nt,2,-2,nt,-99,nt,
CC(OC(=O)Cc1coc2ccc3ccccc3c12)C(=O)Nc1ncc(Cl)cc1Cl (stereo not given),19,nt,-19,2,3,i,1,-7,
CCOC(=O)C1=C(COC(=O)CCS(=O)(=O)c2ccc(C)cc2)NC(=O)NC1C (stereo not given),nt,-6,nt,4,3,nt,9,nt,
CC(C)c1nc2cc(C(=O)N3CCNC(=O)C3c3ccc(F)cc3)ccc2o1 (stereo not given),-3,-4,-1,2,-12,i,-3,-8,
C#Cc1cccc(NC(=O)C2CCN(C(C)=O)CC2)c1,-11,-22,5,2,-6,i,2,1,
O=C(NCc1cccs1)C1CCN(c2nc3ccccc3o2)CC1,-11,2,-6,4,-2,i,-19,-12,
COc1cccc(C(=O)NC(=S)Nc2ccc([N+](=O)[O-])cc2C)c1,-4,nt,nt,0,0,i,-7,-6,
Cn1c(=O)c2[nH]c(Cc3cccc(O)c3)nc2n(C)c1=O,nt,-19,nt,1,0,nt,16,nt,
CC(CC(=O)c1ccccc1)=NCC(O)CN=C(C)CC(=O)c1ccccc1 (stereo not given),nt,-4,nt,-1,-5,nt,2,nt,
CN(C(=O)COC(=O)c1ccc(S(=O)(=O)N2CCOCC2)cc1)c1ccccc1,nt,0,-16,0,2,nt,-4,nt,
O=C(O)CC(NC(=O)Cc1ccccc1)c1ccccc1 (stereo not given),-10,-3,-1,-2,4,i,-19,-5,
O=C(CSc1nc2ccccc2c(=O)[nH]1)Nc1cccc([N+](=O)[O-])c1,-8,5,18,-4,-10,i,63*,-4,
O=C(O)CSCC(=O)N1N=C2/C(=C/c3ccccc3)CCCC2C1c1ccccc1 (stereo not given),0,0,5,0,1,nt,5,11,
COc1cc(/C=C(/C#N)C(=O)Nc2ccccc2)ccc1OCc1ccc(C(=O)O)cc1,0,nt,-11,-4,-3,nt,-17,4,
CCN(CC)S(=O)(=O)c1ccc(OC)c(NC(=O)CSCc2c(C)noc2C)c1,nt,-5,nt,0,1,nt,21,nt,

# Bioassay records: PubChem, several laboratories
